HTT promoter inh: Primary qHTS for Identification of Small Molecule Inhibitors of Huntingtin Promoter Activity; HEK293 HTT promoter firefly luciferase reporter (activity 0% = vehicle and -100% = no light), 24 h; 48,000 tested, 0.93% active; Potency, µM (top dose mostly 57.5 µM), for inactives: top-dose activity change, negative = inhibition, usual class: inhibitors; active = well fitted inhibition curve with a large enough effect; inconclusive = small, poorly fitted or top-dose-only effect; inactive = no such curve, though single readings can be large or run the other way; note: nearly all actives have a fitted effect of over 50% in size
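HEK293 cells carrying firefly luciferase reporters were seeded at 2,500 per well in Opti-MEM and cultured for 24 h. They were then treated with compounds at up to 57.5 uM final for 24 h at 37 degrees C before Dual-Glo luminescence readout.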
PMP22 txn prim: Cell-based coincidence reporter assay to measure PMP22 gene transcription in S16 Pmp22-F2sN cells - Primary screen | S16 Pmp22-F2sN Schwann cells (luciferase reporters placed in the Pmp22 gene), FLuc/NLuc coincidence luminescence, 24 h | Potency, µM (series often up to 57.5 µM), without a hit: at the highest dose activity change, negative = inhibition, hits mostly inhibitors | 43,000 tested, 2% active | AID 1508649, 2021; active = clear falling dose curves in both reporters; inconclusive = both reporters move, but less clearly or upward; inactive = either reporter flat; the % is the NLuc reporter signal; note: % is set by controls: 0 for no effect and ±100 for the full control effect; some results filed as inactive show a strong effect at the top dose
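S16(c9) Schwann cells with FLuc/NLuc coincidence reporter in the Pmp22 3' UTR; compounds pin-transferred, 24 h at 37C. Dual-luciferase read: FLuc first, then NLuc after Stop&Glo, each 10 min at room temperature.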
Starred values were filed as active, the others as inactive; ? = inconclusive; nt = not tested or not shown; & = joins results of further samples; [ ] = remark or other dose. Potency is the fitted concentration of half-maximal effect.

SMILES | HTT promoter inh | PMP22 txn prim
CC(=O)N[C@@H]1[C@H](O[C@@H]2c3ccc(c(Cl)c3)Oc3cc4cc(c3O[C@H]3O[C@H](CO)[C@@H](O)[C@H](O)[C@H]3NC(=O)CCCCCCCC(C)C)Oc3ccc(cc3Cl)C[C@H]3NC(=O)[C@H](N)c5ccc(O)c(c5)Oc5cc(O)cc(c5)[C@H](NC3=O)C(=O)N[C@H]4C(=O)N[C@H]3C(=O)N[C@@H]2C(=O)N[C@@H](C(=O)O)c2cc(O)cc(O[C@H]4O[C@H](CO)[C@@H](O)[C@H](O)[C@H]4O)c2-c2cc3ccc2O)O[C@H](CO)[C@@H](O)[C@@H]1O | -5% | nt
CCCN1CCN(c2nnc(-n3cccc3C(=O)Nc3cc(Cl)ccc3C)s2)CC1 | -24% | ?
Cc1ccc(NC(=O)CSc2nc(=O)n(CCN3CCOCC3)c3c2CCC3)cc1Cl | -22% | ?
CC(N)C12CC3CC(CC(C3)C1)C2 (centres undefined) | -5%&-1% | nt
CCc1ccccc1NC(=O)CCCN1C(=O)COc2ccc(C)cc21 | -19% | -5%
CCCC12CN3CC(CCC)(CN(C1)C3c1c[nH]c3ccccc13)C2=O (centres undefined) | -13% | -2%
Cc1nc2c(c(C)c1CCC(=O)Nc1ccc(F)cc1)c(=O)n(C)c(=O)n2C | -17% | 2%
CC(C)COc1ccc(-c2nonc2NC(=O)c2ccc(F)cc2)cc1 | -22% | -10%
CC(=O)N1c2ccc(S(=O)(=O)NCC3CCC(C(=O)Nc4cccc(C)c4)CC3)cc2CC1C (centres undefined) | ? | ?
CCOc1ccc(C(=O)NCCS(=O)(=O)N2CCN(c3cccc(Cl)c3)CC2)cc1 | -22% | -35%
CCOc1cc(CNC(=O)c2ccc(Cn3c(=O)c4cccn4c4cccnc43)cc2)ccc1OC | -5% | -7%
COc1ccc(C)cc1NS(=O)(=O)c1cnc(N)nc1 | -3% | -25%
O=C(O)CSc1nc2ccccc2nc1N1CCCCC1 | -19% | 23%
CCOC(=O)C(CC)N1CCN(Cc2ccc(F)cc2)C(=O)C1=O (centres undefined) | -9% | -8%
O=C(CSc1nc2c([nH]c3ccccc32)c(=O)n1-c1ccccc1)N1CCCCCC1 | ? | -18%
COc1cc2c(cc1OC)C(COc1ccccc1OC)N(C(=O)c1ccc(S(=O)(=O)N(C)C)cc1)CC2 (centres undefined) | -10% | ?
CCN(CC)S(=O)(=O)c1ccc2c(c1)N(CC(=O)Nc1c(C)cc(C)cc1C)C(=O)C1CCCN21 (centres undefined) | -8% | -19%
CCN(CCCNC(=O)CSc1cc(=O)n(CC)c2ccccc12)c1ccccc1 | -53% | ?
COc1ccc(S(=O)(=O)N(CC(=O)Nc2ccc(OC)cc2OC)c2ccc(Cl)cc2)cc1 | -30% | ?
CCn1cc(C(=O)N2CCN(c3cccc(Cl)c3)CC2)c(=O)c2cc(S(=O)(=O)N3CCC(C)CC3)ccc21 | -15% | ?

Brought forward from above: five compounds, then new ones.
SMILES | HTT promoter inh | PMP22 txn prim
COc1cc2c(cc1OC)C(COc1ccccc1OC)N(C(=O)c1ccc(S(=O)(=O)N(C)C)cc1)CC2 (centres undefined) | -10% | ?
CCN(CC)S(=O)(=O)c1ccc2c(c1)N(CC(=O)Nc1c(C)cc(C)cc1C)C(=O)C1CCCN21 (centres undefined) | -8% | -19%
CCN(CCCNC(=O)CSc1cc(=O)n(CC)c2ccccc12)c1ccccc1 | -53% | ?
COc1ccc(S(=O)(=O)N(CC(=O)Nc2ccc(OC)cc2OC)c2ccc(Cl)cc2)cc1 | -30% | ?
CCn1cc(C(=O)N2CCN(c3cccc(Cl)c3)CC2)c(=O)c2cc(S(=O)(=O)N3CCC(C)CC3)ccc21 | -15% | ?
COc1cccc(Cn2c(Oc3cc(C)cc(C)c3)nc3c2c(=O)n(C)c(=O)n3C)c1 | -14% | ?
CCn1cc(/C=C(\NC(=O)c2ccccc2Cl)C(=O)NCCCn2ccnc2)c2ccccc21 | -12% | ?
Fc1ccc(-n2cc(-c3ccccc3)c3c(NC4CCCCC4)ncnc32)cc1 | -22% | ?
COc1ccc(Nc2sc(C(=O)c3ccccc3)c(N)c2C(=O)Nc2cc(C)ccc2C)c(OC)c1 | ? | ?
O=C(NCCc1ccccc1)C1CCC(CNS(=O)(=O)c2ccccc2)CC1 (centres undefined) | 2% | -39%
COC(=O)C1=C(C)NC(=O)NC1c1cn(-c2ccccc2)nc1-c1ccc(OC)c(Br)c1 (centres undefined) | -15% | 4%
Cc1ccc(NC(=O)Cn2c(=O)oc3ccccc32)cc1Cl | ? | -55%
Cc1cccc(OCc2nc(CC(=O)Nc3ccc(Cl)cc3)cs2)c1 | -22% | -11%
CCCCNC(=O)CN1CCN(c2ncc(NC(=O)c3ccc(Cl)cc3)cc2C(=O)O)CC1 | -17% | -9%
Cc1ccc(-c2onc(C)c2C)cc1S(=O)(=O)N1CCOc2ccc(Cl)cc21 | ? | ?
CCC(=O)N1c2ccc(S(=O)(=O)CCC(=O)N3CCN(c4cc(C)ccc4C)CC3)cc2CC1C (centres undefined) | -24% | ?
CCN(CC)c1nn2c(=O)c(C(=O)NCc3cccc(C)c3)cnc2s1 | -4% | -24%
Cc1ccc(NC(=O)c2nc(-c3ccncc3)no2)c(Cl)c1 | 67%[activator] | -27%
Cn1cnc(=N)c2[nH]cnc21 | 91%[activator] | nt
COc1cc(OC)c(C(=O)CCCN2CCCC2)c(OC)c1 | 2%&10% | nt
COc1ccccc1NC(=O)c1cc2ccc3cccnc3c2[nH]1 | 57%[activator] | ?
CCOc1ccc(CCNC(=O)CCc2c(C)nc3c(c(C)nn3-c3ccc(C)c(C)c3)c2C)cc1 | -1% | 0%
CC1CCCCN1Cc1nc2c(c(=O)n(C)c(=O)n2C)n1Cc1ccc(Br)cc1 (centres undefined) | -1% | 16%
COc1ccc(-c2nc3sc(CCNC(=O)Cc4ccc(F)cc4)c(C)n3n2)cc1 | -7% | 13%
COc1ccc(OC)c(NC(=O)[C@H](Cc2ccccc2)N2Cc3ccccc3C2=O)c1 | -13% | -15%
CN(C)c1ccc(C(=O)Nc2ccc(-c3nc4ccccc4o3)cc2)cc1 | 16% | -4%
O=c1n(Cc2ccc(F)cc2)nc2n1-c1cc(Cl)ccc1OC2 | -9% | -22%
Cc1ccc(NC(=O)c2ccc(COc3ccccc3Cl)o2)cc1 | -26% | 0%
CCOc1ccc(NC(=O)CSc2cc(C)c3ccccc3n2)cc1 | -2% | ?
O=S(=O)(NCc1nc2cccnc2n1Cc1ccc(F)cc1)c1ccc2c(c1)CCCC2 | -17% | -25%
Cc1cc2ccccc2n1CCNC(=O)c1ccc(F)cc1 | -20% | -1%
NC(=O)c1nc(Nc2ccccc2)sc1NC(=O)c1ccccc1Br | 1% | ?
Cc1nc(NC(=O)c2c(-c3ccccc3)c(-c3ccccc3)nn(C)c2=O)sc1C | 17% | -16%
O=C(NC1CCCCCC1)c1cc2c(Cl)nc3ccccc3c2s1 | -2% | -1%
CCOc1ccccc1C(=O)N(Cc1ccc(N(C)C)cc1)CC1CCCO1 (centres undefined) | 5% | 16%
Cc1c2cnn(CC(=O)Nc3ccc(F)cc3F)c(=O)c2c(C)n1Cc1cccc(Cl)c1 | -14% | -9%
CCOC(=O)Cn1c(=O)cc(C)c2c(C)nn(-c3cccc(F)c3)c21 | -4% | -9%
O=C(Nc1ccc(-c2cn3cccnc3n2)cc1)c1cc(Br)ccc1Cl | -2% | 39%
Cc1ccc(C(=O)c2cn(Cc3c(F)cccc3Cl)c3nc(C)ccc3c2=O)cc1 | -16% | ?
Cc1cccc(NC(=O)Cn2cc(S(=O)(=O)N3CCCC3)c(S(=O)(=O)N3CCCC3)c2)c1C | 3%[11.5 µM] | 8%
COc1ccc(CNC(=O)c2cc3sccc3n2Cc2ccc(C)cc2)cc1 | 22% | -17%
Cc1ccc(C)c(S(=O)(=O)Nc2ccc3c(c2)CCCN3C(=O)c2cccs2)c1 | ? | ?
O=C(Cn1c(=O)oc2cc(S(=O)(=O)NC3CCCC3)ccc21)Nc1ccc(F)c(F)c1 | ? | ?
CC(Oc1ccccc1Cl)C(=O)N1CCN(CCc2ccccn2)CC1 (centres undefined) | -13% | -14%
O=C(NCc1ccccc1Cl)c1ccc2c(c1)N(Cc1ccccc1)C(=O)CS2 | -28% | ?
CCOC(=O)c1scc(-c2ccc(C)cc2)c1S(=O)(=O)Nc1ccc(F)c(F)c1 | -28% | -3%
COc1ccc(CCNC(=O)c2ccc(Cn3c(=O)c4ccccc4n(Cc4cccc(C)c4)c3=O)cc2)cc1OC | -7% | ?
CCCN(CCC)CCNC(=O)c1nn(C)c2c1CS(=O)(=O)c1ccccc1-2 | 6% | 3%
CC(=O)N1CCCc2cc(S(=O)(=O)N3CCC(C(=O)NCc4ccc(N(C)C)cc4)CC3)ccc21 | ? | -16%
CCN1C(=O)c2ccccc2S(=O)c2ccc(C(=O)NCc3ccc(C)cc3)cc21 (centres undefined) | -24% | -5%
O=C(CSc1nc(=O)n(CCN2CCOCC2)c2c1CCC2)Nc1ccc(F)cc1F | -12% | -12%
O=C(CCSCc1cccc(Cl)c1)NCCc1ccc(Cl)cc1 | -12% | -21%
CC(C)(C)c1ccc(CN(Cc2ccco2)c2cnc(S(C)(=O)=O)nc2C(=O)Nc2ccc(F)cc2)cc1 | -30% | -6%
COc1ccc(-c2coc3cc(O)cc(O)c3c2=O)cc1 | 17% | nt
Cc1ccc(NC(=O)Cn2c(=O)n(Cc3ccc(C(=O)NCc4ccc5c(c4)OCO5)cc3)c(=O)c3ccccc32)cc1 | -5% | -16%
COc1cccc2c1cc1c(=O)n(CC(=O)N3CCN(c4cc(Cl)ccc4C)CC3)nc(C)n12 | -8% | -13%
COc1ccc(-c2noc(CN(C(=O)Cc3ccc(C)cc3)C(C)C)n2)cc1 | ? | ?
O=C(Cn1c(=O)n(CC2CCCO2)c(=O)c2ccccc21)Nc1ccc(F)cc1F (centres undefined) | -11% | 4%
CC(=O)OCC(=O)[C@@]1(O)CC[C@H]2[C@@H]3CCC4=CC(=O)CC[C@]4(C)[C@@H]3C(=O)C[C@@]21C | -5% | nt
COc1ccc(C(=O)N(c2ccc(OC)cc2)S(=O)(=O)c2ccc3c(c2)n(C)c(=O)n3C)cc1 | 3% | 5%
Cc1ccc(Cn2c(=O)n(CCCCC(=O)NCc3ccc4c(c3)OCO4)c(=O)c3ccccc32)cc1 | -9% | -4%
Cc1noc2ncnc(N3CCCC(C(=O)NCCC(C)C)C3)c12 (centres undefined) | ? | ?
CCCCCn1c(NCc2ccccc2OC)nc2ccccc21 | ? | ?
CCCCNc1ncnc2c1nnn2C | -3% | -7%
O=C(NC1CCCC1)c1ccc2c(=O)n(Cc3ccccc3)c(SCc3cccc(F)c3)nc2c1 | -1% | -8%

Overlap with the part before: five entries, then new ones.
SMILES | HTT promoter inh | PMP22 txn prim
Cc1ccc(Cn2c(=O)n(CCCCC(=O)NCc3ccc4c(c3)OCO4)c(=O)c3ccccc32)cc1 | -9% | -4%
Cc1noc2ncnc(N3CCCC(C(=O)NCCC(C)C)C3)c12 (centres undefined) | ? | ?
CCCCCn1c(NCc2ccccc2OC)nc2ccccc21 | ? | ?
CCCCNc1ncnc2c1nnn2C | -3% | -7%
O=C(NC1CCCC1)c1ccc2c(=O)n(Cc3ccccc3)c(SCc3cccc(F)c3)nc2c1 | -1% | -8%
Cn1cc(C2=C(c3c4n(c5ccccc35)CCC(CN)C4)C(=O)NC2=O)c2ccccc21 (centres undefined) | ? | nt
COc1cc(C2CC(=O)Nc3c2c(=O)[nH]c2nc4ccccc4n32)ccc1O (centres undefined) | -9% | -4%
Fc1ccccc1CNCCCSc1nnnn1-c1ccccc1 | -5% | -10%
Cc1ccccc1NC(=O)CC1C(=O)NCCN1C(=O)c1cccc(Cl)c1 (centres undefined) | -3% | 9%
CCOc1ccc(S(=O)(=O)NCC(c2ccco2)S(=O)(=O)c2cccs2)cc1 (centres undefined) | ? | ?
Cc1cccc(C(=O)Nc2sc3c(c2C(=O)O)CCCC3)c1 | -13% | 4%
Cc1ccc(C)c(CN2C(=O)c3ccccc3S(=O)(=O)c3ccc(C(=O)N4CCN(c5ccccc5)CC4)cc32)c1 | -19% | -54%
Cc1oc(-c2ccccc2Cl)nc1CS(=O)(=O)CC(=O)NC(C)c1ccccc1 (centres undefined) | -27% | -27%
O=C(Cn1cc(C(=O)c2ccco2)c2ccccc21)Nc1ccc(Br)cc1 | -4% | -6%
CCOC(=O)C1CCN(S(=O)(=O)c2cc(-c3cc(C)no3)ccc2C)CC1 | -28% | -8%
Cc1cccc(C(=O)Nc2cc(-c3ccccc3F)nn2-c2ccccc2)c1 | -29% | 20%
O=c1n(Cc2ccc([N+](=O)[O-])cc2)c2ccccc2c2nc(-c3ccccc3)nn12 | -13% | -13%
COc1ccc(N2CCN(C(=O)CCc3nnc4n(C)c(=O)c5sccc5n34)CC2)cc1 | -2% | 3%
CCc1sc(Nc2cccc(Cl)c2C)nc1-c1cc2cccc(OC)c2oc1=O | ? | -2%
CCOc1ccc(/C=C/c2nc(C#N)c(N3CCN(c4ccccc4)CC3)o2)cc1 | -2% | 1%

High-throughput results from PubChem.

Compounds as they come (roughly 2.6% active in at least one column).
